High-throughput results deposited in PubChem by National Center for Advancing Translational Sciences (NCATS).
HTT ATP protect: Huntington cell model cytoprotection by ATP luminescence; PC12 HTT-Q103 induced, cytoprotection, ATP luminescence, 40 h; Potency, µM (doses to about 56.4 µM), for inactives: cytoprotection (ATP increase), actives largely listed as activators; 0.14% of 230,000 active; AID 1471;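 further: % of control where 0% means no effect; nearly all actives have a fitted effect of over 45% in size; toxic huntingtin expression switched on by the ecdysone agonist tebufenozide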
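Compounds were screened for protection of PC12 cells against cell death after tebufenozide induction (100 nM final) of mutant Huntingtin exon 1 (Q103) fused to GFP.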
KDM4E inh: inhibitors of human JMJD2E histone demethylase. B2RXH2. JMJD2E catalytic domain, FDH-coupled NADH fluorescence (FDH is formaldehyde dehydrogenase). Potency, µM (doses to about 57.1 µM), inactives show at the highest dose activity change, negative = inhibition, actives largely listed as inhibitors. 1.6% of 230,000 active; active means well fitted inhibition curve with a large enough effect, not every such curve was filed as active; inconclusive means small, poorly fitted or top-dose-only effect, or another doubt; inactive means no such curve, though single readings can be large or run the other way;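 further: 0% = wells with enzyme and -100% = buffer wells without enzyme; nearly all actives have a fitted effect of over 50% in size; many of its hits are not listed in these tables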
Target sequence (B2RXH2 1-337 limits assumed): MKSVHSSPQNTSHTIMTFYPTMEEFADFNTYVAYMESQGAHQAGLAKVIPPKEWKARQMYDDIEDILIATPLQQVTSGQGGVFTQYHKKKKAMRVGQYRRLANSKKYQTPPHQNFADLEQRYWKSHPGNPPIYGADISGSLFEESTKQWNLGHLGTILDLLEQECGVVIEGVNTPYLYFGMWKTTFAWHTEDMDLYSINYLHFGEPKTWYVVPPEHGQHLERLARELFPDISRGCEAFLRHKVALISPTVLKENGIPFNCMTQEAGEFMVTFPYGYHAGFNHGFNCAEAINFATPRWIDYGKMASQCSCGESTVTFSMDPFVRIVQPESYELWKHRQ
HTT aggregate: reduces HttQ103-GFP aggregates in PC12 cells; PC12 HttQ103-GFP aggregates, Acumen cytometry, 40 h; Potency, µM (series often up to 46.1 µM), without a hit: at the highest dose activity change, negative = inhibition, actives largely listed as inhibitors; 1.1% of 220,000 active; AID 1688; further: on the % scale 0 is the no-effect control and ±100 the full control effect; nearly all actives have a fitted effect of over 60% in size
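Quantitative HTS on tebufenozide-induced (100 nM) PC12 cells stably expressing polyQ103 Huntingtin exon 1–GFP. Reduction of bright GFP aggregates, detected by laser scanning cytometry after lysis, identified actives across the titration.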
SMN2 splice enh: SMN2 splice variant enhancement; 2.8% of 210,000 active; Potency, µM (doses to about 46.1 µM), inactives show top-dose activity change, positive = activation, hits mostly activators; HEK293 SMN2-luciferase splicing reporter, luminescence, 30-36 h; further: % of control where 0% means no effect; nearly all actives have a fitted effect of over 55% in size
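HEK293 cells carry an SMN2 […]–luciferase reporter in which exon 7 inclusion puts luciferase in frame. Cells were plated 10-12 h before compound addition, then incubated 30-36 h at 37C. ONE-Glo luminescence was read; sodium butyrate at 4.5 mM final served as control.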
An asterisk follows results filed as active; ? = inconclusive; nt = not tested or not shown; & = joins results of further samples; [ ] = another dose, or the depositor's remark. Unless noted, the call rests on the fitted dose curve; in most records, active means well fitted curve in the direction sought with a large enough effect; inconclusive means small, poorly fitted or top-dose-only effect, or another doubt; inactive means no such curve, though single readings can be large; an effect the other way counts as inactive or inconclusive. Potency means the concentration at half of the fitted maximal effect.

cpd	canonical_smiles	HTT ATP protect	KDM4E inh
1	Nc1ccc(CCN2CCN(c3cccc(C(F)(F)F)c3)CC2)cc1	-40%[inhibitor]	1%
2	CN(C)[C@@H]1C(=O)C(C(N)=O)=C(O)[C@@]2(O)C(=O)C3=C(O)c4c(O)ccc(Cl)c4[C@@](C)(O)C3C[C@@H]12 (stereo partly drawn)	nt	4%
3	CCC(Oc1ccc(Cl)cc1)C(=O)OC1CC2CCC(C1)N2C (stereo not drawn)	-58%[inhibitor]	nt
4	Oc1ccccc1O	-89%[inhibitor]	14µM*
5	C/C=C/c1ccc(OC)cc1	-35%[inhibitor]	?
6	CCOC(=O)c1ccc(N2C(=O)CC(N3CCC(C#N)(c4ccccc4)CC3)C2=O)cc1 (stereo not drawn)	-3%	9%
7	Cc1ccc(-n2c(O)c(/C=C/C=Nc3ccccc3)c(=O)[nH]c2=O)cc1	nt	-13%
8	COc1ccc(C(=O)N2CCCC2=O)cc1	?	?
9	COC(=O)NC(=S)Nc1ccccc1NC(=S)NC(=O)OC	-50%[inhibitor]	-7%
10	C=C[C@@H]1CN2CC[C@H]1C[C@H]2[C@H](O)c1ccnc2ccccc12	2%[10 µM]	nt

cpd	HTT aggregate	SMN2 splice enh
1	nt	-12%&-19%
2	-9%	-14%
3	nt	-17%
4	nt	?
5	nt	7%
6	-11%	-12%
7	9%	3%
8	7%&21%	-17%&19%&7%
9	nt	14%&4%
10	0%	nt

(further entries)
cpd	canonical_smiles	HTT ATP protect	KDM4E inh
11	COc1ccc(C[C@@H]2c3cc(O)c(OC)cc3CCN2C)cc1O	nt	-1%
12	C[C@H](N)Cc1c[nH]c2ccc(O)cc12	0%	1%
13	OC(O)C(Cl)(Cl)Cl	-11%	nt
14	Cc1ccc2c(c1)C1CN(C)CCC1N2C(=O)Nc1cccc(C(F)(F)F)c1 (stereo not drawn)	-8%	3%
15	O=S1OCC2C(CO1)C1(Cl)C(Cl)=C(Cl)C2(Cl)C1(Cl)Cl (stereo not drawn)	6%	0%
16	CC(=NCCCN1CCCCC1)c1c(O)n(Cc2ccccc2)c(=O)[nH]c1=O	38%	5%
17	O=c1[nH]c(=O)n(Cc2ccco2)c(O)c1/C=N/N1CCCCCC1	-1%[10 µM]	-7%
18	NCC(CC(=O)O)C1CCCCC1 (stereo not drawn)	-20%	9%
19	COP(=S)(OC)SCn1nnc2ccccc2c1=O	?	?
20	Cc1ccc(C2=CCNCC2)cc1	2%[10 µM]	1%

cpd	HTT aggregate	SMN2 splice enh
11	-16%	8%
12	nt	nt
13	8%	nt
14	2%	-11%
15	nt	-3%&0%
16	-5%	20%
17	-2%	1%
18	-13%	11%
19	nt	13%&18%
20	-2%	2%

Following part.
cpd	canonical_smiles	HTT ATP protect	KDM4E inh
21	CCOC(=O)C1C(C=C(C)C)C1(C)C (stereo not drawn)	nt	2%
22	CCN(CC)C1=NC(=[N+](CC)CC)c2ccccc21	-50%[inhibitor]	?
23	O=[N+]([O-])c1ccc(Sc2nc3ccccc3o2)c([N+](=O)[O-])c1	-112%[inhibitor]	-3%
24	CC1=C(O)C(=O)[C@@H]2O[C@@H]2C1=O	-38%	nt
25	CC(=O)OC1N=C(c2ccccc2)c2cc(Br)ccc2N(C)C1=O (stereo not drawn)	10%	10%

cpd	HTT aggregate	SMN2 splice enh
21	nt	0%
22	2.8µM*	-46%[inhibitor]
23	4%[9.22 µM]	-2%
24	nt	-10%
25	18%	1%

A different layout for part of the listing above:
11	COc1ccc(C[C@@H]2c3cc(O)c(OC)cc3CCN2C)cc1O
12	C[C@H](N)Cc1c[nH]c2ccc(O)cc12
13	OC(O)C(Cl)(Cl)Cl
14	Cc1ccc2c(c1)C1CN(C)CCC1N2C(=O)Nc1cccc(C(F)(F)F)c1 (stereo not drawn)
15	O=S1OCC2C(CO1)C1(Cl)C(Cl)=C(Cl)C2(Cl)C1(Cl)Cl (stereo not drawn)
16	CC(=NCCCN1CCCCC1)c1c(O)n(Cc2ccccc2)c(=O)[nH]c1=O
17	O=c1[nH]c(=O)n(Cc2ccco2)c(O)c1/C=N/N1CCCCCC1

Assay by compound | 11 | 12 | 13 | 14 | 15 | 16 | 17
HTT ATP protect | nt | 0% | -11% | -8% | 6% | 38% | -1%[10 µM]
KDM4E inh | -1% | 1% | nt | 3% | 0% | 5% | -7%
HTT aggregate | -16% | nt | 8% | 2% | nt | -5% | -2%
SMN2 splice enh | 8% | nt | nt | -11% | -3%&0% | 20% | 1%

18	NCC(CC(=O)O)C1CCCCC1 (stereo not drawn)
19	COP(=S)(OC)SCn1nnc2ccccc2c1=O
20	Cc1ccc(C2=CCNCC2)cc1
21	CCOC(=O)C1C(C=C(C)C)C1(C)C (stereo not drawn)
22	CCN(CC)C1=NC(=[N+](CC)CC)c2ccccc21

Assay by compound | 18 | 19 | 20 | 21 | 22
HTT ATP protect | -20% | ? | 2%[10 µM] | nt | -50%[inhibitor]
KDM4E inh | 9% | ? | 1% | 2% | ?
HTT aggregate | -13% | nt | -2% | nt | 2.8µM*
SMN2 splice enh | 11% | 13%&18% | 2% | 0% | -46%[inhibitor]

An excerpt; the hit share may differ from the screen's.
